AI-2 QS modul = Vibrio harveyi AI-2 quorum sensing modulators, primary screen, JMH597 strain, luminescence/OD600 ratio | activity change, % at 7.5 µM | 300,000 compounds, 0.4% hits | Vibrio harveyi JMH597 AI-2 luminescence/OD600 ratio, 9 h; stronger effect = lower value; strain lacks LuxN and CqsS sensors; 0 = neutral-control median; in the data active means activity change below about -75%, passing the limit was not always enough; inconclusive means no clear call, values can overlap the other calls;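 further: luminescence divided by OD600 gain over 9 h not by final OD600 alone; inactives centre near 13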
HDAC3 inhib = HDAC3 deacetylase inhibitors, primary screen, biochemical, fluorescence, cell-free homogeneous; inhibition, % at 8.3 µM; recombinant HDAC3, fluorogenic peptide/trypsin coupled; 320,000 compounds, 0.15% hits; in the data active means inhibition above about 26%, passing the limit was not always enough; inconclusive means no clear call, values can overlap the other calls
Target sequence (O15379 whole entry, looked up): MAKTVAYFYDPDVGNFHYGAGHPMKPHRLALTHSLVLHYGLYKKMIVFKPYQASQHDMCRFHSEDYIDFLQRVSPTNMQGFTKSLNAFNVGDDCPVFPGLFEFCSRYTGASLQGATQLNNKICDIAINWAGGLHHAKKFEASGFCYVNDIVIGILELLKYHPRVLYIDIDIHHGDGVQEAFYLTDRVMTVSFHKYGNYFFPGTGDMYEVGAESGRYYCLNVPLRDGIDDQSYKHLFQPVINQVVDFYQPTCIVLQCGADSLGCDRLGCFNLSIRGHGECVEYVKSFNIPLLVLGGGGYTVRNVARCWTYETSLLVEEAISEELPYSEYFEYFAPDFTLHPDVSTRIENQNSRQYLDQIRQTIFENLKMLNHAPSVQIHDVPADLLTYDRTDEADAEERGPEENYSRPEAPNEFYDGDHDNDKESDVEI
HSP90 inh = HSP90 inhibitors, primary screen, cell lysate, luminescence. 290,000 compounds, 0.91% hits. Heat shock protein HSP 90 (rabbit reticulocyte lysate; luciferase refolding). inhibition, % at 5.6 µM. Rabbit reticulocyte lysate, luciferase refolding luminescence, 3 h. AID 1789, 2009;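 active means inhibition above the screen-wide mean plus 3 SD, computed separately per campaign, cut at about 16% in these data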;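 further: 0% = DMSO wells and 100% = 60 µM geldanamycin wells; inhibitors lower the luminescence because luciferase stays unfolded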
Platelet DG rel = inhibitors of platelet dense granule secretion, primary screen, cell-based, MLPCN, human platelets | human platelet-rich plasma, SFLLRN dense granule ATP release, luminescence | inhibition, %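 (compounds screened at 7.5 µM in platelet-rich plasma)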 | 300,000 compounds, 0.22% hits;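 active means mean replicate score, as percent of positive control, at or above 50; inconclusive means mean below 50 but at least one replicate at or above 50; inactive means mean and every replicate below 50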
HSF1 inh = HSF1 inhibitors in luciferase reporter cells, primary screen, cell-based, NIH3T3, luminescence | NIH3T3-HGL HSE-luciferase, MG132-induced, luminescence 8 h; stronger effect = lower value | activity change, negative = inhibition, % at 7.5 µM (by protocol) | 300,000 compounds, 0.77% hits | AID 2098, 2009;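 active means more than half of replicate wells show activity change below -50%, luminescence cut by over half; inconclusive means some wells, but at most half, below -50%; inactive means no replicate well below -50%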;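 further: luciferase reports HSF-1 transcriptional activity via heat shock element; 0% = median of DMSO wells and -100% = zero luminescence signal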
HSF-1 act = HSF-1 activators, primary screen, NIH3T3-HGL cells, MG132 stress, luminescence, single point; NIH3T3-HGL HSF-1 luciferase reporter, 8 h; 100% = twice DMSO control signal; activation, % at 9 µM; 300,000 compounds, 1.7% hits;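 active means mean replicate activation of at least 50% with a set share of replicates each reaching 50%; inconclusive means only one of those two conditions met; inactive means mean below 50% and too few replicates reaching it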;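 further: 0% = median of the neutral control wells and 100% = twice that signal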
PolyA inhibitor = polyadenylation inhibitors in yeast reporter cells, primary screen, luminescence, S. cerevisiae; S. cerevisiae SKY197-pL101 polyadenylation reporter, beta-gal luminescence; efflux-impaired pdr1/pdr3 knockout yeast; score 100 = 6 SD above DMSO; calls only at 12 µM; 300,000 compounds, 0.02% hits; AID 1875, 2009;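 active means lowest replicate activity score at least 50, where 100 means six control SD above control mean; inconclusive means lowest score under 50 but half or more replicates reach 50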;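 further: yeast exposed to compound for 9 h at 30 °C; higher score means more reporter readthrough which indicates perturbed polyadenylation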
GSK3B inh = human GSK3beta kinase inhibitors, primary screen, biochemical, cell-free homogeneous, HTS. activity score (negative = inhibition), % at 10 µM. Glycogen synthase kinase-3 beta (Homo sapiens), P49841. GST-GSK3beta kinase, ADP-Glo luminescence, 60 min; stronger effect = lower value. 300,000 compounds, 0.038% hits;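 active means more than half of replicate wells score below -50%, meaning over 50% inhibition versus plate controls; inconclusive means some replicates but at most half score below -50%; inactive means no replicate scores below -50%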;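 further: 0% = median DMSO wells and -100% = median GW8510 positive control wells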
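test system = GST-tagged human GSK3beta kinase, cell-free | reagent = 25 µM ATP with peptide substrate | dosing = one dose of 10 µM per compound | schedule = 60 min reaction, RT | detection = luminescent ADP-Glo measurement of ADP formed | control set = DMSO neutral wells and GW8510 at 20 µM as positive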
GSK3A inh = blockers of GSK3A enzyme activity – biochemical, luminescence, cell-free homogeneous, HTS, primary screen. 320,000 compounds, 0.1% hits. GSK-3 alpha kinase, ADP-Glo luminescence, 60 min. inhibition, % at 10 µM;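 in the data active means inhibition above about 50%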;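 further: GST-tagged GSK-3 alpha with peptide substrate and 25 µM ATP; 0% = DMSO neutral wells and 100% = GW8510 positive control wells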
Target sequence (P49840 whole entry, looked up): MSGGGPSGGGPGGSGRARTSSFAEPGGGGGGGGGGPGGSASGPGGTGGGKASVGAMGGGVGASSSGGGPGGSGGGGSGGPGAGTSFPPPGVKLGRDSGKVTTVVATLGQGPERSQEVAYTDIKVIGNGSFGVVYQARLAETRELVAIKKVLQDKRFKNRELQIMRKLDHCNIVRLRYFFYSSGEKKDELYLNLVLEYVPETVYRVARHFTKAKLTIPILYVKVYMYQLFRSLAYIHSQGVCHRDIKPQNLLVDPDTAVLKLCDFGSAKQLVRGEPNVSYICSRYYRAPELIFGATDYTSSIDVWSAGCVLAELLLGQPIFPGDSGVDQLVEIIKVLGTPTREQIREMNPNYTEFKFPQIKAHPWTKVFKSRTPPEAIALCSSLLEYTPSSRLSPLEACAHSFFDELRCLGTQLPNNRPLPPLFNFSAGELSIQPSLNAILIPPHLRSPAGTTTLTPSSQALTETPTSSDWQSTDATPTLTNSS
* marks the source's active call; other numbers are inactive results; i = inactive; ? = inconclusive; . = not tested or not shown.

SMILES	AI-2 QS modul	HDAC3 inhib	HSP90 inh	Platelet DG rel	HSF1 inh	HSF-1 act	PolyA inhibitor	GSK3B inh	GSK3A inh
COc1ccc(/C=C2/Sc3ccc(C(=O)N4CCc5ccccc5C4)cc3NC2=O)cc1	52	11	2	3	5	10	i	1	1
Cc1cc(C)n(-c2ccc(F)cc2)c(=O)c1C(=O)O	14	-7	3	4	-9	-5	i	2	-3
COc1ccc(OC)c(-c2nc3c(C)n[nH]c(=O)c3[nH]2)c1	17	8	0	2	-14	-12	i	2	4
CC(C)c1ccc(NC(=O)CCc2ccccc2)cc1	-39	11	0	-3	38	41	i	2	1
CCN(CC)CCNc1nc2nonc2nc1NCCN(CC)CC	11	9	6	4	-1	-14	i	3	0
O=C(NCc1cccs1)C1CCCN(c2nc3ccccc3o2)C1 (centres undefined)	15	-2	-1	1	7	4	i	0	-3
CCOC(=O)N1CCN(C(=O)c2ccc3c(c2)NC(=O)/C(=C\c2cccc(C)c2)S3)CC1	3	4	5	-16	6	30	i	0	-2
O=C(COc1ccc(Cl)cc1)NCCSc1ccccc1	-3	-1	-2	8	5	-7	i	5	-3
CC1(C)Cc2c(ccc3ccccc23)C(=O)N1	4	-4	2	-1	0	-9	i	-7	8
O=C(O)c1cc2ccc3ccccc3c2oc1=O	39	-61	0	-25	8	24	i	-2	-5
CCOC(=O)C(Oc1ccc(=O)[nH]n1)C(C)=O (centres undefined)	-7	0	-4	-4	-44	-51	i	0	.
COc1ccc2nc(NC(=O)C3CCCN(S(=O)(=O)c4cccs4)C3)sc2c1 (centres undefined)	23	14	1	12	-1	-2	i	-1	-2
CCOC(=O)c1sc(=S)n2c1[nH]c(=O)c1ccc(C(=O)OC)cc12	17	-5	4	10	-8	1	i	4	1
O=C(NCc1ccccn1)C1CCCN(S(=O)(=O)c2ccccc2)C1 (centres undefined)	22	7	2	1	1	2	i	3	-1
O=c1cc(C23CC4CC(CC(C4)C2)C3)[nH][nH]1	11	6	4	-1	12	19	i	0	0
Oc1cc(O)cc(-c2cc3ccc(O)cc3o2)c1	-28	-128	.	3	-2	4	i	-7	12
COC(=O)c1ccc(COC(=O)c2c(C)nn(Cc3ccccc3Cl)c2Cl)o1	-26	-1	-1	6	2	21	i	0	6
O=C(/C=C/c1ccc(Cl)c(Cl)c1)NCc1ccco1	-17	-6	-1	-3	22	49	i	-4	0
CCOC(=O)/C(=C\C=C1/Sc2ccccc2N1CC)C(C)=O	5	?	3	-5	-6	-2	i	1	9
Cc1c(C(=O)Nc2ccccn2)oc2ccccc12	17	-2	4	11	23	41	i	1	-1
O=C(NCc1ccccn1)C1CCN(S(=O)(=O)N2CCCC2)CC1	4	-2	4	13	-9	-12	i	-1	-1
CCC1(O)c2ccccc2-c2ncccc21 (centres undefined)	20	5	-1	8	-9	-29	i	-3	0
COc1cc(NC(=O)COC(=O)Cc2ccsc2)cc(OC)c1	.	3	.	.	.	.	.	.	-3
O=C(Nc1ccc(-c2nnc(-c3ccccc3)o2)cc1)c1ccc(Br)o1	6	6	4	2	2	8	i	2	-2
C=CCN(c1ccc(F)cc1)S(=O)(=O)c1cc(C(=O)NC2CCC(O)CC2)ccc1Cl (centres undefined)	.	1	.	.	.	.	.	.	3
COc1cccc(C2[C@H](C)C3(CCN2C)OCCO3)c1 (some centres undefined)	-10	-12	-3	9	-4	-17	i	-11	-2
CCc1cc(=O)oc2c3c(cc(OCC(=O)NCc4ccncc4)c12)OC(C)(C)CC3	32	-82	-1	-1	-3	-2	i	5	0
O=S(=O)(Nc1cccc(C(F)(F)F)c1)c1cnc[nH]1	11	-2	4	0	-17	-34	i	3	-1
COc1cccc(CNC(=O)C2CCCN(c3nc4ccccc4o3)C2)c1 (centres undefined)	-7	-3	3	-10	4	22	i	-2	-3
O=C(Oc1ccc2c(=O)c(Cl)coc2c1)c1ccncc1	27	2	-1	-1	-3	10	i	0	0
CSc1nc(NCCCO)c2c3c(sc2n1)CN(C)CC3	-6	-38	-2	-3	-3	-4	i	-41	49
CS(=O)(=O)c1ccc2nc(NC(=O)C3CCCCC3)sc2c1	-34	2	-6	7	6	21	i	-1	1
O=C(NN=Cc1ccccc1OC(F)F)c1ccc(NS(=O)(=O)c2cccs2)cc1	.	6	.	.	.	.	.	.	0
COc1cccc(-c2nc(-c3ccc(NC(=O)c4cccs4)cc3)no2)c1	25	-21	-2	6	22	28	i	-3	-2
CC1(C)NC(=O)N(CC(=O)OCC(=O)c2ccc(Br)s2)C1=O	.	9	.	.	.	.	.	.	-1
COc1cc(/C=C2/SC(=Nc3ccc(O)cc3)NC2=O)ccc1O	9	0	0	-1	-26	-28	i	-1	12
Cc1occc1C(=O)Nc1ccccc1C(=O)O	18	-8	-5	10	-6	0	i	3	10
Cc1cc(C(F)(F)F)nc(Nc2nc(C)c3ccccc3n2)n1	-4	3	-1	0	2	17	i	-1	-2
CN(C)/C=C/C(=O)c1nnn(C2CCCCC2)c1NC1CCCCC1	9	3	5	20	-1	-12	i	-1	-1
CCOC(=O)C1=CCN(Cc2ccccc2)CC1	11	-2	2	1	-3	10	i	1	4
c1ccc(C(Cc2nc(-c3ccccn3)no2)c2ccccc2)cc1	8	-8	13	-25	-4	-11	i	0	-1
CCCCC(=O)Nc1nc2ccc3nc(C)sc3c2s1	17	-6	1	16	12	24	i	-5	2
CC(C)c1nc(NCCO)c(C#N)c2c1CCCC2	0	-3	-1	5	-33	-33	i	-1	-2
Cc1ccc2oc(-c3ccc(NC(=O)c4cccnc4)cc3)nc2c1	28	6	-5	1	28	29	i	-2	0
CCn1c(CN2CCOCC2)nnc1SCC(=O)Nc1ccc(C)cc1	8	.	1	-4	-1	-8	i	3	-4
O=C(CCN1CCCC1)c1cccs1	25	3	2	1	6	-9	i	-2	3
CCN(CCCNC(=O)C1CCN(S(=O)(=O)c2cnc[nH]2)CC1)c1cccc(C)c1	12	-5	-1	-4	0	42	i	1	0
CCc1ccc(S(=O)(=O)Nc2ccc(-c3nc4cccnc4s3)cc2)s1	-7	.	8	-2	-7	-27	i	2	-3
COc1ccc(C2=NOC(Cn3nc(-c4ccccc4)cc3C(=O)NCc3ccc(C)cc3)C2)cc1 (centres undefined)	.	10	.	.	.	.	.	.	-3
COc1ccc(NC(=O)c2ccc(Br)o2)cc1	8	8	4	19	24	38	i	0	1
Continued:
SMILES	AI-2 QS modul	HDAC3 inhib	HSP90 inh	Platelet DG rel	HSF1 inh	HSF-1 act	PolyA inhibitor	GSK3B inh	GSK3A inh
O=C(NN=Cc1ccc(F)c(F)c1)c1ccc(NS(=O)(=O)c2cccs2)cc1	.	5	.	.	.	.	.	.	1
S=C(Nc1ccccc1)Nc1ccc2cn[nH]c2c1	9	-4	3	-2	1	1	i	-16	27
CN(Cc1nc(-c2ccccn2)no1)S(=O)(=O)c1ccc(Br)cc1	14	-2	3	-7	-2	-10	i	-1	.
CN(C)/C=C/c1c([N+](=O)[O-])c2ccc(O)cc2n1-c1ccccc1	8	7	4	3	-1	-6	i	-56*	56*
Cc1ccccc1NC(=O)C1CCN(C2=NS(=O)(=O)c3ccccc32)CC1	45	-11	-1	9	-8	-6	i	4	-1
COc1cccc(N/C(SCc2cccc([N+](=O)[O-])c2)=C(/C#N)C(N)=O)c1	.	-6	-2	2	24	20	i	.	7
c1ccc(SCc2nc(-c3ccccn3)no2)cc1	-8	1	5	24	40	?	i	-7	.
C=CCN(CC=C)C(=O)Nc1ccc2nc(C)sc2c1	12	10	-3	5	-11	-6	i	3	-3
O=C1CCCC(=O)C1C(c1ccc(Cl)cc1)C1C(=O)CCCC1=O	.	-3	.	.	.	.	.	.	-1
CC(C)(C)c1ccc(OCC(=O)NC2CCS(=O)(=O)C2)cc1 (centres undefined)	20	4	-3	1	-4	6	i	3	-4
OC1CN=C2Sc3ccccc3N2C1 (centres undefined)	-2	-8	-5	4	-8	-30	i	0	-8
CCC(=O)/C=C1/Sc2ccc(OC)cc2N1CC	34	3	0	1	-1	-5	i	-12	25
COC(=O)C1C(O)=C(C=Nc2ccc3ccccc3c2)C(=O)CC1(C)C (centres undefined)	-56	6	-6	-4	18	2	i	3	0
O=C(Nc1nccs1)C1CCN(S(=O)(=O)c2cnc[nH]2)CC1	19	-3	8	-5	-3	5	i	-10	2
COc1ccc(CN2CCNC(=O)C2CC(=O)O)c(OC)c1 (centres undefined)	22	-3	-4	-16	-2	4	i	-1	-2
COc1ccc(CNc2cccc(F)c2)cc1Br	-43	6	1	-5	15	1	i	-2	3
COCCNC(=O)/C(C#N)=C/c1ccc(O)c([N+](=O)[O-])c1	10	-1	3	27	-4	8	i	-10	14
O=C(NC1(C(F)(F)F)C(=O)Nc2c1c(=O)[nH]c(=O)n2-c1ccccc1)c1ccncc1 (centres undefined)	18	4	-2	-5	-7	-9	i	-2	-1
COc1ccc(C2=NOC(Cn3nc(-c4ccccc4C)cc3C(=O)O)C2)cc1 (centres undefined)	.	3	.	.	.	.	.	.	-3
CCC(C)(C)n1nnnc1CN1CCN(c2nc3cc(OC)ccc3cc2C#N)CC1	22	6	0	8	6	-6	i	-1	0
Cc1ccc(N(NC(=O)C(C)(C)O)C(=O)c2ccccc2)cc1C	40	-2	1	3	0	9	i	1	-1
O=C(COC(=O)c1ccccc1C(=O)c1ccccc1)c1ccco1	8	-4	-2	-4	-3	-6	i	-3	-2
CCOC(=O)C1=C(C)NC2=C(C(=O)CC(c3ccc(OC)c(OC)c3)C2)C1c1ccc(C)o1 (centres undefined)	.	9	-3	.	.	.	.	.	-1
O=C(NCc1cccs1)c1cnc2sccn2c1=O	21	9	-7	21	2	14	i	2	2
CCN1CCN(c2c(Cl)cccc2NC(=O)c2ccc3c(c2)OCCO3)CC1	18	-12	-4	-1	-3	-3	i	-3	3
Cc1ccc(Cn2c(=O)n(Cc3ccco3)c(=O)c3ccccc32)cc1	14	-2	2	9	-2	-9	i	-1	0
c1cc2[nH]snc2c2nc(C3CC3)nc12	31	11	3	17	-25	-30	i	-3	54*
Cc1cccc(-c2nnc(SCC(=O)O)n2Cc2ccccc2)c1	22	0	-6	1	15	16	i	1	1

One compound at a time (already shown). Order of values: AI-2 QS modul, HDAC3 inhib, HSP90 inh, Platelet DG rel, HSF1 inh, HSF-1 act, PolyA inhibitor, GSK3B inh, GSK3A inh
O=C(NCc1cccs1)c1cnc2sccn2c1=O in the list: 21, 9, -7, 21, 2, 14, i, 2, 2
Cc1ccc(N(NC(=O)C(C)(C)O)C(=O)c2ccccc2)cc1C in the list: 40, -2, 1, 3, 0, 9, i, 1, -1

Some of the compounds tested; rates above refer to the full screens.
